Bioassay records (PubChem BioAssay)
KCNQ2 inh = KCNQ2 potassium channel inhibitors, primary screen, cell-based, CHO-K1, FluxOR thallium flux, B-score (AID 2156). 20 min; stronger effect = lower value; only compounds with negative scores are shown here; some inactives read as strong as hits. O88943. 1.1% of 310,000 active. B-score at 10 µM;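 active means fluorescence ratio B-score at most minus 3 library SDs, with starting brightness B-score within 2 library SDs, cut at about -5.5 in these data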
Target sequence (O88943 whole entry, looked up): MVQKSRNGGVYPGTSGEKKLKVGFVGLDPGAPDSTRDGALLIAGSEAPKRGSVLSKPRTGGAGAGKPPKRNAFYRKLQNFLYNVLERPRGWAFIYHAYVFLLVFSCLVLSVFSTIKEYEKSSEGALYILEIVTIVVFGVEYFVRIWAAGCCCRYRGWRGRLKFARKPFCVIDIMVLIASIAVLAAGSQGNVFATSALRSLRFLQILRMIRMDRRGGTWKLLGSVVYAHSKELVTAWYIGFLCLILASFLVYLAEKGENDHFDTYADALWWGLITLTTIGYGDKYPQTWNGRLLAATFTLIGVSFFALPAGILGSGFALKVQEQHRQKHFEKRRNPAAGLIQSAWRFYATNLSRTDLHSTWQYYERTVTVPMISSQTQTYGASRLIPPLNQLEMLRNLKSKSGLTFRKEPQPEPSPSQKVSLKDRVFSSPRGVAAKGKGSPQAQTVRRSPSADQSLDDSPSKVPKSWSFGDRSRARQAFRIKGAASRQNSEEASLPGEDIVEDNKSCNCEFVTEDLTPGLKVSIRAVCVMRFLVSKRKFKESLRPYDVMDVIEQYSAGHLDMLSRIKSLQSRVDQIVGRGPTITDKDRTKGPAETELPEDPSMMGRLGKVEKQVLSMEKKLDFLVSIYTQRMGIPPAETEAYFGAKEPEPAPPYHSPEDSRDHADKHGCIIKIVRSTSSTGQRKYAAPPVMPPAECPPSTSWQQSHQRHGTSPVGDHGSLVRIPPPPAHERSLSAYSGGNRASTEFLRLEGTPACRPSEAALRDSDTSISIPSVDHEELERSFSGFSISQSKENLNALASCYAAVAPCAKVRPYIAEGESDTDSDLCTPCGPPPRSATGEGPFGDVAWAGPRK
KCNQ2 inh baseline = second read-out of KCNQ2 inh, no call of its own (marks repeat the call); B-score; measured here: initial fluorescence intensity artifact check;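 brightness before thallium and not channel activity; 0 = typical well and far values either way flag optical interference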
Active calls of the source: *; i = inactive. This is a subset (hit frequency here may not be typical).

SMILES	KCNQ2 inh	KCNQ2 inh baseline
COc1ccccc1C(=O)C1CCCN(Cc2ccc(Oc3ncccn3)cc2)C1 (configuration not stated)	i	-0.83
CCOC(=O)C(Sc1nnc(-c2ccncc2)o1)C(C)=O (configuration not stated)	i	0.63
Cc1cccc(NC(=O)CCS(=O)(=O)c2ccc3c(c2)NC(=O)CS3)n1	i	0.13
O=c1[nH]cnc2c1ncn2Cc1ccc([N+](=O)[O-])cc1	i	-0.81
COC(=O)C1CCCN1C(=O)c1cccs1 (configuration not stated)	i	0.16
Cc1cccc(-n2ncc3c(NNC(=O)c4ccco4)ncnc32)c1	i	1.44
COc1cccc(NC(=O)N2CCCC2C(=O)NC23CC4CC(CC(C4)C2)C3)c1 (configuration not stated)	i	-0.09
O=C(c1ccc(S(=O)(=O)N2CCCCCC2)cc1)N1CCN(c2ccccc2F)CC1	i	2.12
O=C(Nc1ccc(Cl)cc1)C1C2CCCCC21 (configuration not stated)	i	-0.53
CCCN1CCN(CCCNC(=O)c2cc3c(=O)[nH]c4ccc(C)cc4c3s2)CC1	i	-1.05
O=C(NCc1ccc(F)cc1)c1cccnc1C(=O)O	i	0.41
COc1ccc(OC)c(S(=O)(=O)NCc2cn3ccsc3n2)c1	i	1.5
O=C(Nc1nccs1)C1CCN(S(=O)(=O)c2c(Cl)cccc2Cl)CC1	i	0.52
CC1CC(C)CN(S(=O)(=O)c2ccc(C(=O)Nc3sccc3C(N)=O)cc2)C1 (configuration not stated)	i	-2.03
Cc1ccc(C)c2sc(NC(=O)CN3C(=O)CCC3=O)nc12	i	-0.24
OCCNC(=S)NCc1ccccc1	i	-0.16
COc1ccc(-c2nc(SC(C)C(=O)Nc3ccc(NC(C)=O)cc3)n[nH]2)cc1 (configuration not stated)	i	-1.21
COc1ccccc1CNCC(c1ccccc1)c1ccccc1	i	0.68
COc1ccc(N2CCN(C(CNC(=O)C(=O)NCc3cccnc3)c3ccco3)CC2)cc1 (configuration not stated)	i	1.14
C=CCn1c(SCC(=O)N(CC)CC)nc(O)cc1=O	i	-0.71
CCn1c(SCC(=O)Nc2cccc(NC(C)=O)c2)nnc1-c1ccco1	i	-0.67
CCN(CC)CCn1c(NCc2nc3ccccc3n2Cc2ccccc2)nc2ccccc21	-6.2*	0.91*
Cc1cc2ccccn2c1C(=O)c1cccc(F)c1	i	-0.92
CSc1nnc2c3ccccc3n(CCc3ccccc3)c2n1	i	-0.69
O=[N+]([O-])c1cccc(S(=O)(=O)NCCc2cccs2)c1	i	-0.12
O=C1NC(=S)N/C1=C\c1cccc([N+](=O)[O-])c1	i	-2.45
CCCSc1nnc(Sc2nnnn2-c2ccccc2)s1	i	-2.78
CCn1nnc(NC(=O)c2ccc([N+](=O)[O-])o2)n1	i	1.9
COc1ccccc1N(C(=O)c1ccco1)C(C(=O)NC1CCCC1)c1ccc(N2CCOCC2)cc1 (configuration not stated)	i	0.19
O=C(N[C@@H](Cc1ccccc1)C(=O)NC1CC1)c1ccc(Cl)cc1	i	-0.02
N=C1C(=O)OCC1c1ccccc1NC(=O)c1ccccc1 (configuration not stated)	i	-0.77
COc1cc(NC(=O)Nc2ccc(C)cc2)cc([N+](=O)[O-])c1	i	-1.26
COc1ccc(-n2cc(CN(C)CCO)c(-c3cccc(F)c3)n2)cc1	i	1.47
Cc1ccc(NS(=O)(=O)c2cc(N)ccc2Cl)c(C)c1	i	-0.68
O=C(Nn1cnnc1)c1cc2cc(Br)ccc2oc1=O	i	-0.42
O=C(Nc1ncccn1)c1cc(-c2cccc(Br)c2)nc2ccccc12	i	-0.13
COc1cc(CN2CCN(S(=O)(=O)c3ccc(F)cc3)CC2)cc(OC)c1OC	i	-0.2
CCC(=O)n1nc(-c2ccc(Cl)cc2)nc1NCc1ccccc1	i	-0.18
CCOc1cc(NC(=O)c2ccco2)c(OCC)cc1NC(=O)Cc1cccc(OC)c1	i	0.84
O=C(COC(=O)CCCc1c[nH]c2ccccc12)Nc1ccc2c(c1)OCO2	i	0.08
COc1cccc(CNC(=O)CCC2CCCN(Cc3ccc(OC(F)F)cc3)C2)c1 (configuration not stated)	i	-1.64
CC(=O)c1c(C)n(-c2cccc(Cl)c2)c2ccc(O)cc12	i	1.11
COc1ccc(-c2nnn(CC(=O)N3CCOCC3)n2)cc1	i	-0.97
C=C(C)CSc1nnc2n(C)c(=O)c3c4c(sc3n12)CCC4	i	-2.04
CC(C)CCOc1ccc(C(=O)N2CCN(c3ncccn3)CC2)cc1	i	1.01
O=C(Nc1ccccc1N1CCN(C(=O)c2ccccc2)CC1)c1ccc([N+](=O)[O-])o1	i	0.05
Cc1cc(C)c(C)c(S(=O)(=O)NCc2ccc(C(=O)N3CCCC3)cc2)c1C	i	0.01
CCn1c(SCc2cccc(C(=O)O)c2)nnc1-c1ccc(Cl)cc1	i	-0.27
COC(=O)C/C=C/[C@@H](C)[C@@H](/C=N/OC[C@@H](C)[C@H](OCc1ccccc1)C(C)C)NS(=O)(=O)c1ccc(C)cc1	i	0.55
CCOc1cc(/C=N/NC(=O)CSc2nncn2C)ccc1OCc1cccc(C)c1	i	1.15
CCOc1ccc(-c2csc(NC(=O)CSC3=NC(=O)CN3C(C)=O)n2)c2ccccc12	i	-0.6
C/C(CC1(O)C(=O)N(C)c2ccccc21)=N\O (configuration not stated)	i	0.03
CC(=O)OCCOc1nc(NC(C)C)nc(NC(C)C)n1	i	1.1
COc1ccc(N2CCN(C(=O)CSc3ccc(C)cc3)CC2)cc1	i	1.59
O=C(NNC(=O)c1cc(OCC(F)(F)F)ccc1OCC(F)(F)F)c1cccc(C(F)(F)F)c1	i	1.09
COc1ccc(NS(=O)(=O)c2cccc3cccnc23)cc1OC	i	1.43
CCCCNC(=O)OCCNC(=O)NC	i	0.75
CCOC(=O)C1CCCN(Cc2cccc(Oc3ccccc3)c2)C1 (configuration not stated)	i	1.08
CCOC(=O)c1ccc(-c2ccc(C3Nc4ccccc4C(=O)N3O)o2)cc1 (configuration not stated)	i	3.49
N#Cc1ccccc1Cn1cc(/C=N/Nc2ccc([N+](=O)[O-])cn2)c2ccccc21	i	1.46

(next part)
SMILES	KCNQ2 inh	KCNQ2 inh baseline
COC(=O)c1ccccc1NC(=O)CN(C)Cc1ccccc1	i	0.54
N#CC1=C(SCC(=O)NC2CC2)NC(=O)C(C#N)C12CCCCC2 (configuration not stated)	i	-0.04
Nc1ccc(C(=O)N/N=C/c2sc(N3CCOCC3)nc2-c2ccccc2)cc1	i	-1.53
COc1ccc(OC)c(N/C=C/C(=C(C#N)C#N)N(C)C)c1	i	-1.74
CCCc1sc(N)nc1-c1ccc(C)cc1	i	-0.27
Cc1ccc(Cn2ccnc2C(=O)Nc2ccccc2)cc1	i	-0.78
Cc1[nH]c(=S)[nH]c(=O)c1CCOc1ccccc1	i	1.49
Cc1ccc(NC(=O)c2cc(-c3ccccc3)nn2-c2ccccc2)c(Br)c1	i	-1.29
CCOC(=O)c1c(N)sc2c1CCC(CC)C2 (configuration not stated)	i	-1.15
COc1ccccc1CN(Cc1nc2ccccc2c(=O)[nH]1)S(=O)(=O)c1ccc(C)cc1	i	1.78
CC(=O)Nc1ccc(S(=O)(=O)N2CC3(C)CC2CC(C)(C)C3)cc1 (configuration not stated)	i	2.61
CC(C)N1CCC(N2CCN(Cc3nc4ccccc4s3)CC2CCO)CC1 (configuration not stated)	i	1.63
CCS(=O)(=O)CCSC(=N)N	i	-0.56
COc1ccc(NC(=O)C2CCN(C(=O)c3cccs3)CC2)cc1	i	1.14
O=C(/C=C/c1ccc(-c2ccccc2[N+](=O)[O-])o1)c1ccco1	i	-1.77
COc1ccc(CNC(=O)C2CC(=O)N(c3ccc(OCC(=O)N4C(C)CCCC4C)cc3)C2)cc1 (configuration not stated)	i	-0.79
COc1ccc(OC)c(S(=O)(=O)NC2CCSc3ccccc32)c1 (configuration not stated)	i	0.28
O=C(c1cc2ccccc2cc1O)N1CCN(c2ccc([N+](=O)[O-])cc2)CC1	i	0.09
COc1cccc(C2C(C#N)=C(N)OC3=C2C(=O)CC(c2ccco2)C3)c1OCc1ccc(F)cc1 (configuration not stated)	i	0.38
Cc1ccc(S(=O)(=O)N2CCN(C(=O)c3cccc(-n4cccc4)c3)CC2)cc1	i	-0.31
COC(=O)c1ccc(COC(=O)c2cnc(Cl)c(Cl)c2)cc1	i	0.33
Oc1cccc(C(=S)N2CCCCC2)c1	i	-0.08
COc1ccc(C(=O)Cn2nnc(-c3ccc(N4CCOCC4)cc3)n2)cc1OC	i	-0.65
CS(=O)(=O)c1ccc(CNC(=O)C2(C(F)(F)F)C/C(=C\Cc3ccccc3)CCCO2)cc1 (configuration not stated)	i	0.76
CCCCNC(=O)CCSc1ccc(C)cc1	i	0.06
COc1ccc(-n2nc(C(=O)NCC(=O)N3CCCCCC3)c3ccccc3c2=O)c(OC)c1	i	-0.3
COc1ccc(CNC(=O)Cc2cccs2)cc1OC	i	4.19
CCOc1ccc(/C=N/OCC(=O)NCc2ccco2)cc1	i	0.99
CC(C)(C)CC(C)(C)Nc1c(-c2ccc(O)cc2)nc2cnccn12	i	1.02
Cc1cc(C)n2c(Br)c(CSc3nc4ccccc4o3)nc2n1	i	-0.43
Cc1ccc(C(=O)N2CC(=O)Nc3ccc(F)cc3C2c2ccc(F)cc2)cc1[N+](=O)[O-] (configuration not stated)	i	0.74
COc1cc(Br)cc(CNc2ccc(F)c([N+](=O)[O-])c2)c1O	i	0.02
COC(=O)c1ccc(NC(=O)CN2C(=O)C3C4C=CC(C4)C3C2=O)cc1 (configuration not stated)	i	-1.03
CCn1c(C)nc2cc(S(=O)(=O)C(F)(F)F)ccc21	i	-0.03
COC(=O)CSc1nc(SCc2ccc(C)cc2)nc2c1CCCC2	i	0.67
CCOC(=O)Cc1csc(NS(=O)(=O)c2ccc(Cl)cc2)n1	i	-0.1
Cc1cc(NC(=O)c2ccccc2Cl)n(C(C)(C)C)n1	i	0.25
CCC(C)NC(=O)CSc1nc2ccc(N3CCOCC3)cc2c(=O)n1CCc1ccccc1 (configuration not stated)	i	-0.89
CC(=O)c1ccc(NC(=O)CCc2nnc3ccc(N4CCC5(CC4)OCCO5)nn23)cc1	i	-2.79
COc1cc(/C=N/O)cc(Br)c1OS(=O)(=O)c1ccc(C)cc1	i	-1.88
COC(=O)C1=C(C(=O)OC)[C@@H]2N(Cc3ccccc3)c3ccccc3[C@@]23C[C@@H](C(=O)OC)N(C(=O)c2cccs2)C3=N1	i	-0.14
CN(CC(=O)Nc1n[nH]c(=S)s1)S(=O)(=O)c1cccc2cccnc12	i	-0.05
CCCn1c(SCC(=O)N2CCc3ccccc32)nnc1-c1ccncc1	i	0.18
C#CCOCCOCCOCCNc1nc(N2CCN(C(=O)[C@H](CCC(=O)O)n3cc(C(N)CO)nn3)CC2)nc(N2CCN(C(=O)[C@H](CCCCN)n3cc(C(N)CC(C)C)nn3)CC2)n1 (some centres not stated)	i	1.85
CCc1ccccc1NC(=O)c1cccc(Oc2ccc([N+](=O)[O-])cc2Cl)c1	i	-1.11
COc1ccc(CC(=O)Nc2ccc(S(=O)(=O)N(C)C)cc2)cc1OC	i	1.88
COc1ccc(-c2cc(-c3ccccc3)c(C#N)c(SCC(=O)Nc3ncc(C)s3)n2)cc1	i	-1.33
O=C(Nc1ccc(C(=O)N2CCCC2)cc1)c1ccccc1[N+](=O)[O-]	i	-0.34
Cc1ccc(-c2csc3nc4c5ccccc5c(NCCCN5CCOCC5)nn4c(=O)c23)cc1	i	0.24
CC(C)=C1C2CCC1C(C(=O)Nc1sc(C)c(-c3ccc(C(C)C)cc3)c1C(N)=O)C2C(=O)O (configuration not stated)	i	-0.89
Cc1cc2nc(C(F)(F)F)cc(-c3cccs3)n2n1	i	0.25
Cc1cccc(NC(=S)NC23CN4CN(CN(C4)C2)C3)c1C	i	0.53
O=C(Cc1n[nH]c(=O)c2ccccc12)OCC(=O)c1ccc(F)c(F)c1	i	1.89
COC(=O)C1=C(C)N(c2ccc(Br)cc2)C(=O)/C1=C\c1ccco1	i	0.09
Cc1cnc(C(=O)Nc2nnc(C)s2)cn1	i	0.18
CC(C)CCSc1nc2c(c(=O)[nH]c(=O)n2C)n1CCCc1ccccc1	i	2.32
OCCC1CN(CCCc2ccccc2)CCN1Cc1ccc(F)cc1 (configuration not stated)	i	1.65

Molecules from the list above with a thiophene ring, fused or not (twelve):
SMILES	KCNQ2 inh	KCNQ2 inh baseline
COC(=O)C1CCCN1C(=O)c1cccs1 (configuration not stated)	i	0.16
CCCN1CCN(CCCNC(=O)c2cc3c(=O)[nH]c4ccc(C)cc4c3s2)CC1	i	-1.05
CC1CC(C)CN(S(=O)(=O)c2ccc(C(=O)Nc3sccc3C(N)=O)cc2)C1 (configuration not stated)	i	-2.03
O=[N+]([O-])c1cccc(S(=O)(=O)NCCc2cccs2)c1	i	-0.12
C=C(C)CSc1nnc2n(C)c(=O)c3c4c(sc3n12)CCC4	i	-2.04
CCOC(=O)c1c(N)sc2c1CCC(CC)C2 (configuration not stated)	i	-1.15
COc1ccc(NC(=O)C2CCN(C(=O)c3cccs3)CC2)cc1	i	1.14
COc1ccc(CNC(=O)Cc2cccs2)cc1OC	i	4.19
COC(=O)C1=C(C(=O)OC)[C@@H]2N(Cc3ccccc3)c3ccccc3[C@@]23C[C@@H](C(=O)OC)N(C(=O)c2cccs2)C3=N1	i	-0.14
Cc1ccc(-c2csc3nc4c5ccccc5c(NCCCN5CCOCC5)nn4c(=O)c23)cc1	i	0.24
CC(C)=C1C2CCC1C(C(=O)Nc1sc(C)c(-c3ccc(C(C)C)cc3)c1C(N)=O)C2C(=O)O (configuration not stated)	i	-0.89
Cc1cc2nc(C(F)(F)F)cc(-c3cccs3)n2n1	i	0.25

Given with two lines to a compound: entries from further up
Values in the order – KCNQ2 inh | KCNQ2 inh baseline
Cc1cccc(NC(=S)NC23CN4CN(CN(C4)C2)C3)c1C
    i | 0.53
CN(CC(=O)Nc1n[nH]c(=S)s1)S(=O)(=O)c1cccc2cccnc12
    i | -0.05
COc1ccc(CC(=O)Nc2ccc(S(=O)(=O)N(C)C)cc2)cc1OC
    i | 1.88
